ALR H2O2 inh – inhibitors of human ALR sulfhydryl oxidase, primary screen, biochemical, H2O2 detection, HRP-luminol luminescence, single point; FAD-linked sulfhydryl oxidase ALR (Homo sapiens), P55789; purified ALR, DTT oxidation; inhibition, % (no concentration beside the values); actives 3.8% (n = 290,000);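 active means mean and each replicate at 75% or more; inconclusive means only one of the two met; inactive means neither met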;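 further: stock transfer was 7.5 nL into about 7.5 µL; 0% = neutral wells and 100% = wells with inactivated enzyme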
Ecoli rRNA inh – reduced GFP signal of wild-type E. coli, primary screen, bacterial rRNA inhibitor project, GFP/RFP fluorescence, OD600, single point | AID 720706, 2013 | GFP signal change (wild-type ribosome), % (test concentration not listed) | actives 1.6% (n = 350,000) | E. coli WT GFP vs humanized-ribosome RFP mutants, 24 h; hits give low values; DMSO median 0, no signal -100;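 active means significant combined selectivity score with lowered wild-type GFP, culture density cut under 30%, mutant RFP and density less affected; inactive means any of these conditions unmet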; further: one replicate is shown; some compounds called inactive have numbers as strong as hits
E coli growth – E. coli growth inhibition, primary screen, OD600 | Escherichia coli growth, 23 h; hits give low values | OD600 absorbance (test concentration not listed) | actives 0.21% (n = 330,000) | AID 1053175, 2014;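 active means OD600 absorbance below the run mean of sample wells minus 3.6 SD, in any replicate, cut at about 0.56 in these data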;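 further: stock transfer was 300 nL into about 60 µL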
UCH37 inh – inhibitors of human UCH37 deubiquitinase, primary screen, biochemical, Ub-AMC cleavage, fluorescence | purified proteasome/UCH37 | inhibition, % (no concentration beside the values) | actives 0.33% (n = 330,000) | AID 588478, 2011;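 active means mean of two replicates above 20%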;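 further: 0% = compound-free wells with enzyme and 100% = wells lacking proteasome; stock transfer was 100 nL into about 20 µL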
Target sequence (Q9Y5K5 whole entry, looked up): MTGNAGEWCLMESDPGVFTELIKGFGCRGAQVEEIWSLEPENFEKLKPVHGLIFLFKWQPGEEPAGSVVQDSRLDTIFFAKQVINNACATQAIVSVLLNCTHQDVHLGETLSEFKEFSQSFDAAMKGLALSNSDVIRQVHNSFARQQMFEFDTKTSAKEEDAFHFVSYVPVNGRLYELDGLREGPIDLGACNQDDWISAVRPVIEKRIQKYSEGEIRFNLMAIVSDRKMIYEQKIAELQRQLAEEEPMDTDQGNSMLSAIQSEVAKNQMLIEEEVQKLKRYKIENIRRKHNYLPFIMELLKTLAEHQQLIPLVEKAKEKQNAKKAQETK
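Assay system: Proteasome-bound UCH37. Buffer or medium: pH 7.4 Tris-HCl (50 mM) with ovalbumin, ATP-MgCl2, DTT. Incubation: 30 min preincubation with enzyme, 25 min cleavage at room temperature. Measured by: fluorescence, ex 355 nm, em 460 nm. Read-out basis: percent inhibition. Control set: wells without proteasome as full block, compound-free enzyme plus substrate as uninhibited.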
FGF22 binding – binders of human FGF22 protein, primary screen, FGF22 synaptogenesis inhibitor project, biophysical, thermal shift, single point. recombinant FGF22 thermal shift, SYPRO orange fluorescence; percent of sucrose octasulfate shift, DMSO zero. actives 1.5% (n = 340,000). Fibroblast growth factor 22 (Homo sapiens), Q9HCT0. calls only at 9.99 µM;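 active means melting point raised past a set limit in the mean and every replicate; inconclusive means no clear call; three in four hits are not shown here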
Target sequence (Q9HCT0 whole entry, looked up): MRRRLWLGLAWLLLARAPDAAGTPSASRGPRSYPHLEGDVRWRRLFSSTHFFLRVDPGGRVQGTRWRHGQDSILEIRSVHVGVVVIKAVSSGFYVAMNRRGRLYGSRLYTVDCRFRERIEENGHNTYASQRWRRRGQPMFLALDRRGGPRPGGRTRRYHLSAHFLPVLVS
Beta2AR agonist – beta2AR agonists driving receptor internalization, primary screen, cell-based, FAP fluorogen, flow cytometry; Beta-2 adrenergic receptor (Homo sapiens), P07550; Am2.2-beta2AR cells; reference of the scale not given here; response, % (test concentration not listed); actives 0.43% (n = 340,000);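 active means response above a set limit, near 3 SD of response in nonfluorescent compounds, cut at about 42% in these data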;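 further: stock transfer was 100 nL into about 11 µL; a reference agonist was the positive control; negative values mostly stem from fluorescent compounds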
HNF4A DNA FP – change in binding of human HNF4A to DNA, primary screen, biochemical, fluorescence polarization, FITC-DNA; activity change, % at 10 µM; actives 0.3% (n = 360,000); 1 h; AID 1224865, 2016; Hepatocyte nuclear factor 4-alpha (Homo sapiens), P41235; in the data active means activity change above about 30%, passing the limit was not always enough;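 further: controls were the assay level and a saturating level of protein; the project sought stronger binding though the title names inhibitors; some compounds called inactive have numbers as strong as hits; positive values seem to mean higher polarization but the record does not say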
Target sequence (P41235 whole entry, looked up): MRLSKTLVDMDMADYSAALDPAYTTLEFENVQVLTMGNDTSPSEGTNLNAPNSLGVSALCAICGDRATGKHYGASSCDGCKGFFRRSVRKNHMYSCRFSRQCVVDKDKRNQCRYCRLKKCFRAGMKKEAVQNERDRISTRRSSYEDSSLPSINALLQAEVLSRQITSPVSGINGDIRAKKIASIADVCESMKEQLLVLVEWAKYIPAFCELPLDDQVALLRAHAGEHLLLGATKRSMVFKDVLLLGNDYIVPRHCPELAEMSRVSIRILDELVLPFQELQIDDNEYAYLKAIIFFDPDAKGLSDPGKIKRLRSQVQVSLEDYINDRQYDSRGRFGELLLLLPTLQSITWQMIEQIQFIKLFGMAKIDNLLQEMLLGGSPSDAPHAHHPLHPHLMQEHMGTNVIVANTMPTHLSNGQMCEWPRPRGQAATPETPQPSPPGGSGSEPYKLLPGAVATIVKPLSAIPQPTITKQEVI
Ecoli rRNA inh OD600 – second read-out of Ecoli rRNA inh, no call of its own (marks repeat the call); OD600 change, %; measured here: OD600 growth;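 optical density of the mix in the first replicate; 0 = DMSO median and -100 = no signal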
Ecoli rRNA inh RFP – further read-out of Ecoli rRNA inh, marked with its call; RFP signal change, %; measured here: RFP humanized mutant strains;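 first replicate; 0 = DMSO median and -100 = no signal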
The depositor's hits bear a star; i = inactive; ? = inconclusive; . = not tested or not shown.

SMILES	ALR H2O2 inh	Ecoli rRNA inh	Ecoli rRNA inh OD600	Ecoli rRNA inh RFP	E coli growth	UCH37 inh	FGF22 binding	Beta2AR agonist	HNF4A DNA FP
N#CC(C(=O)NC1CCCCC1)c1nc2ccccc2nc1N1CCN(c2ccccc2F)CC1 (stereo not drawn)	-6	.	.	.	0.74	3.0	.	5	-1.9
Cn1cc([N+](=O)[O-])c(C(=O)Nc2ccc(C(=O)N3CCCCC3)cc2)n1	-9	5	6	-2.5	0.65	5.5	i	4	-1.3
Cc1cc(C)n2nc(SCC(=O)N3CCN(c4ccccc4)CC3)nc2n1	98*	13	-4	5.5	0.69	1.6	i	-11	-0.8
CCN1CCCC1CNC(=O)C(=O)Nc1ccccc1OC (stereo not drawn)	-3	.	.	.	0.63	-0.4	.	-5	0.4
O=C(NCc1c[nH]c2ccccc12)c1ccccc1	-10	-9	5	2.7	0.7	4.0	i	-7	-0.8
COc1ccc(NC(=O)c2ccccc2SC)c(OC)c1	-44	-4	-3	-4.0	0.65	1.7	i	8	-0.5
CC(=O)Nc1ccc(NC(=O)CSc2ccc3nnc(CCNS(=O)(=O)c4ccc(C)cc4)n3n2)cc1	-6	-1	-2	-4.6	0.65	1.2	i	-6	-1.3
COc1ccc(C(=O)OCCN2CCCCC2)cc1	-11	13	11	-0.5	0.64	4.2	i	2	4.5
COc1ccc(CNC(=O)C2CCCN(S(=O)(=O)c3c(C)nn(C)c3C)C2)cc1 (stereo not drawn)	2	9	2	3.6	0.72	0.8	i	-1	0.2
CCOC(=O)C1=CCN(S(=O)(=O)c2ccc(C)cc2)C1c1ccccc1 (stereo not drawn)	.	-14	-40	-8.6	.	.	i	.	-0.9
CC(C(=O)Nc1ccc2c(c1)OCCO2)N(C)CC(=O)Nc1ccccc1Br (stereo not drawn)	.	-1	-8	1.6	0.68	3.3	i	-2	-0.8
NC(=O)c1c(NC(=O)CN2CCCC2)sc2c1CCCC2	30	.	.	.	0.7	1.7	.	-16	2.7
CCOc1cccc(/C=C/c2ccc3cccc(O)c3n2)c1OC	-3	-37*	-26*	-4.3*	.	.	i	9	2.5
COc1ccc(OC)c(NC(=O)CSc2ccccc2)c1	-6	.	.	.	0.68	-1.7	.	-3	0.6
CNC(=O)c1nn(-c2ccc(C)cc2)ccc1=O	2	.	.	.	0.77	2.3	.	-3	2.1
O=C(COc1cc2oc(=O)c3c(c2cc1Cl)CCC3)NCCCN1CCCC1=O	-6	-8	-8	-0.3	0.7	-4.5	i	-3	-3.1
CCCCN1CC(C)(C)Oc2cccc(F)c2S1(=O)=O	.	4	6	0.7	.	.	i	-7	0.9
CSCCC(NC(=O)c1ccco1)C(=O)OCc1cc([N+](=O)[O-])cc2c1OCOC2 (stereo not drawn)	-17	-6	-18	-0.5	0.67	0.1	i	-10	7.2
O=C(Nc1cnccn1)c1csc2ccccc12	-44	.	.	.	0.67	3.9	.	8	11
CC(C)C[C@H](CO)Nc1nc(N(C)c2cccc(Cl)c2)c2ncn(C(C)C)c2n1	-15	-30	-54	-10.0	.	3.2	i	16	2.8
CC(=O)c1cccc(NC(=O)COC(=O)c2cccc(N3C(=O)c4ccccc4C3=O)c2)c1	.	11	10	1.7	0.72	1.4	i	-7	1.4
COc1ccc(-c2ccc(SCc3ccccn3)nn2)cc1OC	-17	-17	-28	-5.8	0.64	3.2	i	8	-0.1
Cn1cccc1C(=O)OCC(=O)NCc1cccs1	-3	7	8	0.9	0.73	6.7	i	-4	3.8
O=C1NC2(CCCCC2)C(=O)N1c1cccc(Cl)c1	-7	12	14	1.2	0.67	3.2	i	-4	0.7
O=C(CN1c2cccc3cccc(c23)S1(=O)=O)NCc1ccc(F)cc1	-10	-8	-20	9.1	0.6	-69	i	4	0.5
CC1(c2ccc3c(c2)OCCO3)NC(=O)N(CC(=O)Nc2c(F)cccc2F)C1=O (stereo not drawn)	-46	6	9	-1.5	0.67	0.1	i	-8	-0.9
O=S(=O)(c1cccc2ccccc12)N1CCC2CC1c1cc(Cl)ccc12 (stereo not drawn)	.	4	10	-0.7	.	.	i	-1	1.3
CCNC(=O)C1(C)CCN(C(=O)c2cc(C)oc2C)C1 (stereo not drawn)	.	2	10	-3.6	.	.	i	.	-1.2
CCc1ccc(NC(=O)c2cc(-c3ccco3)on2)cc1	1	.	.	.	0.72	-14	.	10	7.3
COc1ccc(-c2sc(Nc3ccccc3)n[n+]2-c2ccccc2)cc1Br	.	4	4	2.0	0.66	6.6	i	10	-2.5

Some of these compounds in order of molar mass, rising.
SMILES	ALR H2O2 inh	Ecoli rRNA inh	Ecoli rRNA inh OD600	Ecoli rRNA inh RFP	E coli growth	UCH37 inh	FGF22 binding	Beta2AR agonist	HNF4A DNA FP
CCCCN1CC(C)(C)Oc2cccc(F)c2S1(=O)=O	.	4	6	0.7	.	.	i	-7	0.9
O=C(CN1c2cccc3cccc(c23)S1(=O)=O)NCc1ccc(F)cc1	-10	-8	-20	9.1	0.6	-69	i	4	0.5
O=C(COc1cc2oc(=O)c3c(c2cc1Cl)CCC3)NCCCN1CCCC1=O	-6	-8	-8	-0.3	0.7	-4.5	i	-3	-3.1

More records:
SMILES	ALR H2O2 inh	Ecoli rRNA inh	Ecoli rRNA inh OD600	Ecoli rRNA inh RFP	E coli growth	UCH37 inh	FGF22 binding	Beta2AR agonist	HNF4A DNA FP
O=C(OCC1CC(c2ccccc2)=NO1)c1ccc(Br)cc1 (stereo not drawn)	-1	8	0	-6.4	0.74	-0.9	i	-2	-0.9
Cc1cccc(C(=O)Nc2sc(-c3ccccc3)cc2C(=O)O)c1	-16	-58	-80	-27	0.69	-24	.	14	-6.2
C=CCOC(=O)C1=C(C)NC(SCC(=O)N(CC)CC)=C(C#N)C1c1ccccc1 (stereo not drawn)	0	.	.	.	0.7	-7.6	.	12	-3.4
O=C(NCc1ccc(F)cc1)c1ccc(CS(=O)(=O)Cc2ccccc2F)o1	-22	.	.	.	0.67	2.8	.	-1	-0.2
O=C(COC(=O)c1cc(S(=O)(=O)Nc2ccccc2Cl)ccc1O)Nc1ccc(F)c(F)c1F	47	8	6	0.3	0.69	-5.6	i	1	-0.2
CN(Cc1ccccc1)C(=O)CSc1n[nH]c(N)n1	.	6	3	-1.7	0.73	-0.4	i	3	-0.1
CCOC(=O)[C@@H]1[C@H]2COc3ccc(Br)cc3[C@@H]2N2C(=O)N(c3ccc(C(F)(F)F)cc3)C(=O)[C@]12C	.	11	4	-5.4	.	1.6	i	0	1.9
COCc1nc2oc3ccc(F)cc3c(=O)c2cc1C(=O)OC	-3	6	7	-0.1	0.69	1.9	i	-10	-0.7
C/C(Cc1ccccc1)=N/NC(=O)CNC(=O)C(c1ccccc1)c1ccccc1	2	-1	5	-0.8	.	.	i	-1	-0.4
CC1CCCC(NC(=O)C2CCN(S(=O)(=O)N3CCC4(CC3)OCCO4)CC2)C1C (stereo not drawn)	-1	.	.	.	0.69	7.1	.	-5	-1.0
COC(=O)c1ccc(-n2c(C)cc(C(=O)COC(=O)CC3Sc4ccccc4NC3=O)c2C)cc1 (stereo not drawn)	1	-10	2	2.4	0.72	-0.1	i	20	4.3
Cc1cc(/N=C/N(C)C)on1	-11	7	2	-0.9	.	.	i	9	-1.1
CCCCN(C(=O)CSc1c(C)c(C)cc(C)c1C)c1c(N)n(CCC)c(=O)[nH]c1=O	.	6	8	-1.0	0.73	2.7	i	7	0.0
COc1ccc(OC)c(NC(=O)c2ccc(CSc3nnc(C)s3)cc2)c1	-1	-18	-17	-1.8	0.71	2.5	i	3	2.5
COc1ccc(CCN2C(=O)C3C4C=CC(C5CC45)C3C2=O)cc1OC (stereo not drawn)	.	5	-1	-0.5	0.69	3.1	i	4	-3.8

Record cards (already shown).
CN(Cc1ccccc1)C(=O)CSc1n[nH]c(N)n1 is listed as ALR H2O2 inh: .; Ecoli rRNA inh: 6; Ecoli rRNA inh OD600: 3; Ecoli rRNA inh RFP: -1.7; E coli growth: 0.73; UCH37 inh: -0.4; FGF22 binding: i; Beta2AR agonist: 3; HNF4A DNA FP: -0.1
COc1ccc(CCN2C(=O)C3C4C=CC(C5CC45)C3C2=O)cc1OC (stereo not drawn) is listed as ALR H2O2 inh: .; Ecoli rRNA inh: 5; Ecoli rRNA inh OD600: -1; Ecoli rRNA inh RFP: -0.5; E coli growth: 0.69; UCH37 inh: 3.1; FGF22 binding: i; Beta2AR agonist: 4; HNF4A DNA FP: -3.8

Later entries.
SMILES	ALR H2O2 inh	Ecoli rRNA inh	Ecoli rRNA inh OD600	Ecoli rRNA inh RFP	E coli growth	UCH37 inh	FGF22 binding	Beta2AR agonist	HNF4A DNA FP
CSc1ccc(NC(=O)NCCCN2CCN(c3ccccc3F)CC2)cc1	.	.	.	.	0.67	2.3	.	12	0.5
O=C(CCc1ccncc1)NC1CCCc2c1cnn2-c1cc(F)cc(F)c1 (stereo not drawn)	-2	.	.	.	0.66	2.2	.	1	2.2
CC(C)C(=O)Nc1c(-c2ccccc2)c(=O)c2ccccc2n1C	.	6	15	-0.2	0.66	-0.1	i	2	-2.0
N/C(=N\OCc1ccccc1)c1nonc1N	3	-10	-4	-8.0	.	.	i	16	-7.0
COc1cc(C(=O)C(=O)c2ccc(OC)c(OC)c2)ccc1O	.	-5	-3	-0.2	0.68	14	i	-2	2.6
COc1ccc(CC(=O)NNC(=O)c2ccco2)cc1	2	7	14	0.2	0.68	2.4	i	1	2.2
Cc1ccc(C(=O)OCC(=O)NC(C)c2ccccc2)cc1C (stereo not drawn)	-1	0	8	-0.9	0.67	0.7	i	-5	-4.0
COc1ccc(CCN(CC(=O)NCc2ccc(F)cc2)C(=O)c2snc(C(N)=O)c2N)cc1OC	.	0	6	2.0	0.62	-12	i	1	0.2
COc1ccc(C2C(C(=O)NCCN3CCOCC3)c3ccccc3C(=O)N2C2CCCCC2)cc1 (stereo not drawn)	-5	.	.	.	0.74	3.7	.	.	.
CC(C)c1ccc(/C=C2\SC(N3CCCC3)=NC2=O)cc1	-3	.	.	.	0.7	13	.	-5	0.2
O=C(Cc1ccc(Br)cc1)Nc1ccc(S(=O)(=O)N2CCCC2)cc1	-13	-36	-46	-0.6	.	.	i	-6	-3.0
CCCn1c(-c2ccncc2)n[nH]c1=S	?	11	6	-0.8	0.72	0.9	i	-2	0.2
O=C(CCc1ccccc1)Nc1cccnc1	0	11	-2	-2.1	0.68	2.1	i	4	2.0
COCOc1ccc(C2CC(=O)c3c(OCOC)cc(OCOC)cc3O2)cc1 (stereo not drawn)	0	.	.	.	0.76	3.8	i	3	-0.2
COc1ccc(CN(C)CCCn2cnc3c(OCc4ccccc4)ncnc32)cc1	.	6	4	4.8	.	.	i	-12	3.6
CCCCNS(=O)(=O)c1cc2c3c(c1)CCN3C(=O)CC2	-3	2	7	-1.3	0.73	0.4	i	-2	1.5

Results in Ecoli rRNA inh RFP, for some of the entries so far:
SMILES | Ecoli rRNA inh RFP
CC(C(=O)Nc1ccc2c(c1)OCCO2)N(C)CC(=O)Nc1ccccc1Br (stereo not drawn) | 1.6
O=C1NC2(CCCCC2)C(=O)N1c1cccc(Cl)c1 | 1.2
O=C(NCc1c[nH]c2ccccc12)c1ccccc1 | 2.7

Screens from PubChem BioAssay.

Only part of the results is shown. The share of hits here may be higher or lower than overall.
